Compound activity from PubChem.
ClpP mod: qHTS Assay for Activators of ClpP; ATP-dependent Clp protease proteolytic subunit (Bacillus subtilis (strain 168)), P80244; AID 651965, 2013; purified B. subtilis ClpP, FRET peptide cleavage, 20 min; Potency, µM (top dose mostly 57.5 µM), inactives show at the highest dose activity change, negative = active; 1.9% of 340,000 active; active = well fitted falling curve with a large enough effect; inconclusive = small, poorly fitted or top-dose-only effect; inactive = no such curve, though single readings can be large or run the other way; note: potency is the fitted concentration of half-maximal effect; the source files actives as falling curves though it sought activators and does not explain the sign; nearly all actives have a fitted effect of over 65% in size; many hits overshoot -100%
Target sequence (P80244 whole entry, looked up): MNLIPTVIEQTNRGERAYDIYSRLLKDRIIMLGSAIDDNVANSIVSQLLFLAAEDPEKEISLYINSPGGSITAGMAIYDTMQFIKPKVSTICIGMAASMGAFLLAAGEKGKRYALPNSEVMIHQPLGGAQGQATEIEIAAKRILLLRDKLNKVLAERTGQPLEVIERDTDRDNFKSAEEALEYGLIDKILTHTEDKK
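FRET quenching reversal measured ClpP activation: 10 microg/mL B. subtilis ClpP at pH 8 with the FRET-FV decapeptide, read at 430 nm after 320 nm excitation. The 20-min minus 0-min signal was scaled between DMSO/no-enzyme wells and ADEP (5.8 microM final).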
CtBP-E1A inh: inhibitors of CtBP/E1A interaction. AlphaScreen GST-E1A/His-CtBP binding, 1536-well; hits give low values; control for the full effect not named in the record. activity change, % (concentration not given with the values). AID 651724. 0.49% of 340,000 active; in the data active means activity change below about -65%; inconclusive means about -30% to -65%; inactive means above about -30%; note: % is set by controls: 0 for no effect and ±100 for the full control effect
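AlphaScreen with 125 nM GST-E1A and 125 nM His-CtBP (5X stocks) in Tris pH 8.0, 300 mM NaCl, BSA, Tween 20, TCEP. Compounds preincubated 2 h at 37 deg C, then glutathione donor/nickel acceptor beads added for 1 h at 37 deg C in dark.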
TRPV1 potentiator: enhances activation of the human vanilloid receptor TRPV1; Q8NER1; TRPV1-expressing cells, Fluo-8 calcium influx, capsaicin EC20 potentiation; host cell line not named in the record; control for the full effect not named in the record; potentiation, % at 8.33 µM; 0.02% of 320,000 active; AID 540277; active means potentiation above 80%; inconclusive means 30% to 80%; inactive means below 30%; note: 0% is about no effect
Target sequence (Q8NER1 whole entry, looked up): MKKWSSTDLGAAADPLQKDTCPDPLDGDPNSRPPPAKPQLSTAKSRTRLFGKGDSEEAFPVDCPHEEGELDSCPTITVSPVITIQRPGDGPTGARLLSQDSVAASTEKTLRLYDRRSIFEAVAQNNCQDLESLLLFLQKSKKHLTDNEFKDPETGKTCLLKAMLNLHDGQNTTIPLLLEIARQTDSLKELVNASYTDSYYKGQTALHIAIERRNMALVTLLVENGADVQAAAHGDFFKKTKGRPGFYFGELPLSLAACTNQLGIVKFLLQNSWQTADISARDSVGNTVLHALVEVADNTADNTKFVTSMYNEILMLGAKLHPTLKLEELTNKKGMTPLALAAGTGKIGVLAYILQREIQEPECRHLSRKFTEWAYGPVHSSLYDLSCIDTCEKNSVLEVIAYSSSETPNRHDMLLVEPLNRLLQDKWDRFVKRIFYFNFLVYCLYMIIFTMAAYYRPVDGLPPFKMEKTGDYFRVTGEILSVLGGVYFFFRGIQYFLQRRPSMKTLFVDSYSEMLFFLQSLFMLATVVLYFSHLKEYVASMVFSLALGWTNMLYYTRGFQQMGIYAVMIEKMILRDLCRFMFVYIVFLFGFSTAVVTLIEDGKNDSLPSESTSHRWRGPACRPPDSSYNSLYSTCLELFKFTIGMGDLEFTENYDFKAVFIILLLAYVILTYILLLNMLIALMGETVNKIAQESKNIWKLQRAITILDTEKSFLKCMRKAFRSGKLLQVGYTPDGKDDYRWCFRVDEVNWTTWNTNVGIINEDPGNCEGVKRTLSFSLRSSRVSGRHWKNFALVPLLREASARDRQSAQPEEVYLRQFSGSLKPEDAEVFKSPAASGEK
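Fluo-8 calcium influx in TRPV1-expressing cells, kinetic read (ex 480/em 520 nm). Compound added and read 3 min for agonist activity, followed by capsaicin at EC20 final and 2 min further read for enhancement.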
Menin-MLL FL inh: menin-MLL binding inhibition, fluorescein peptide; Fluorescence polarization, fluorescein-MLL peptide displacement from menin; FP activity change, % at 61.4 µM; 290,000 tested, under 10 active; AID 1766; inconclusive = falling polarisation curve, or a change in total fluorescence; inactive = total fluorescence flat and polarisation flat or rising; no compound was filed as active; the % refers to the polarisation; negative = inhibition;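 note: % of control where 0% means no effect; inhibitors lower the polarisation; unlabelled MLL peptide was the positive control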
gsp antagonist: antagonists of gsp mutant (McCune-Albright syndrome); gsp-mutant cells, cAMP HTRF, 30 min; control for the full effect not named in the record; 0.4% of 340,000 active; AID 624288; Potency, µM (top dose mostly 76.9 µM), without a hit: at the highest dose activity change, negative = inhibition, actives largely listed as inhibitors; active = falling curve of any shape with a large fitted effect; inconclusive = falling curve, mostly with a smaller effect; inactive = flat or rising curve; cell line not stated here;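 note: intracellular cAMP measured with PDE inhibitor Ro 20-1724 present during compound exposure; potency is the fitted concentration of half-maximal effect; % is set by controls: 0 for no effect and ±100 for the full control effect; nearly all actives have a fitted effect of over 65% in size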
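Cells in G418 medium, seeded 16-24 h, 37C; buffer exchange to DPBS + 1 mM CaCl2, 0.5 mM MgCl2, 0.05% BSA; cpds in DMSO + […] (300 uM stock), 30 min 37C; HTRF cAMP detection.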
Sfp inh: Sfp phosphopantetheinyl transferase inhibition; Q9F4F7; Biochemical Sfp PPTase activity, qHTS; Potency, µM, for the others: max response, negative = inhibition, hits mostly inhibitors; 3.5% of 310,000 active; AID 1490; active = well fitted inhibition curve with a large enough effect; inconclusive = small, poorly fitted or top-dose-only effect, or another doubt; inactive = no such curve, though single readings can be large or run the other way;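 note: the enzyme is Sfp with the accession as filed and its product quenches rhodamine fluorescence; potency is the fitted concentration of half-maximal effect; 0% = enzyme reaction without inhibitor and -100% = no enzyme wells; top concentration of the series not given in the record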
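Buffer: 50 mM Hepes-Na pH 7.6, 10 mM MgCl2, 0.01% Nonidet P-40, 0.01% BSA. Enzyme 15 nM, pre-exposed to compound 15 min; substrates then added and fluorescence change tracked over 30 min.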
gsp agonist: gsp mutant agonism | gsp mutant cells, cAMP HTRF, 30 min; control for the full effect not named in the record | Potency, µM (titrated, usually from 76.9 µM), for inactives: at the highest dose activation (cAMP increase), hits mostly activators | 0.13% of 340,000 active; active = well fitted activation curve with a large enough effect; inconclusive = small, poorly fitted or top-dose-only effect, or another doubt; inactive = no such curve, though single readings can be large or run the other way; cell line not stated here;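 note: phosphodiesterase inhibitor Ro 20-1724 added with compounds to block cAMP breakdown; potency is the fitted concentration of half-maximal effect; nearly all actives have a fitted effect of over 60% in size; about a fifth of the inactives were tested at one dose only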
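Cells stably selected in G418 were plated at 2000/well, grown 16-24 hr, then given compounds in DMSO with the PDE inhibitor […] (300 uM solution added) for 30 min at 37C; cAMP was read by HTRF.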
Starred values were filed as active, the others as inactive; u = inconclusive; x = no result given; [ ] = remark or other dose.

SMILES | ClpP mod | CtBP-E1A inh | TRPV1 potentiator | Menin-MLL FL inh | gsp antagonist | Sfp inh | gsp agonist
Cc1ccc(CN2CCNC(=O)C2CC(=O)NCc2cc(C)n(C)n2)cc1 (stereo not drawn) | 32µM* | 6 | -1 | x | 8% | -7% | -3%
CC(=O)c1c(C)[nH]c(C(=O)COC(=O)c2nccnc2N)c1C | 3.5% | 2 | 8 | x | -8% | x | 2%
COc1ccc(NC(=O)c2ccco2)cc1NC(=O)c1c(OC)cccc1OC | -2.1% | 7 | 11 | -0.5 | 2% | 19% | 15%[15.4 µM]
O=C(O)CC1(CC(=O)Nc2ccc(Oc3cccc(C(F)(F)F)c3)nc2)CCCC1 | -0.1% | x | 18 | 2.1 | -17% | 14% | -20%
O=C(NCCNc1ccc2ccccc2c1)c1cccn2c(=O)c3sccc3nc12 | x | x | u | -0.8 | x | 13% | x
CCc1nnc(NC(=O)c2cc(S(=O)(=O)N(CC)CC)ccc2Cl)s1 | -1.6% | 2 | 11 | -1.9 | -23% | 11% | 10%
COc1ccc(NC(=O)Cc2csc(NC(=O)Nc3ccccc3OC)n2)cc1 | 0.3% | -3 | x | x | x | x | -52%[inhibitor]
Cc1cccc(NC(=S)Nc2cccc3ccccc23)c1 | 3.3% | -3 | -6 | -4.0 | 9% | -23% | u
N#Cc1c(-c2cccnc2)c2c([nH]c1=S)CCCC2 | 0.8% | -2 | 12 | 0.7 | -9% | 28µM* | 38%
CS(=O)(=O)c1ccc(-n2c(=O)n(Cc3ccccc3)c(=O)c3[nH]cnc32)cc1 | 2.1% | x | 2 | -9.0 | -8% | 3% | -3%
Cc1cccc(NS(=O)(=O)c2cccs2)c1 | -1.4% | -3 | 6 | -1.4 | -7% | 8% | -19%
COC(=O)c1cc(OC)c(OC)cc1NC(=O)CC1CCCCC1 | 28µM* | -7 | -1 | -0.7 | -1% | 11% | 4%
Cc1ccc(NC(=O)CSc2nc(=O)n(CCN3CCOCC3)c3c2CCCC3)cc1 | -2.9% | 4 | -4 | x | -4% | x | 6%[15.4 µM]
CC(=O)c1ccc(S(=O)(=O)NCCC(=O)OCC(=O)N(Cc2ccccc2)C(C)(C)C)cc1 | -1.7% | -17 | -20 | x | -20% | x | -12%
COc1cc(/C=N\NC(=O)c2ccc(-c3ccccc3)cc2)cc(Br)c1O | u | -22 | 4 | x | -9% | 1% | 6%[15.4 µM]
O=c1[nH][nH]c(-c2ccccc2)c1C=Nc1ccccc1Cl | -0.9% | -1 | -7 | 6.3 | -16% | 4% | 15%
Cc1nn(-c2cccc(C(=O)O)c2)c(C)c1Oc1ccccc1O | -0.9% | 6 | -7 | 5.0 | -3% | 4% | -30%
Cc1ccc(-c2cc(C(=O)NC3=NCCS3)c3ccccc3n2)cc1C | -11% | 18 | -11 | -1.6 | -11% | 5% | -7%
O=C1[C@H]2[C@@H](C3CC3)N3C(=O)CN(Cc4ccccn4)C(=O)[C@@]3(Cc3ccccc3)[C@H]2C(=O)N1c1ccccc1 | -2.3% | -11 | 0 | 0.7 | 6% | 6% | -10%
O=C(NCC1CCCCC1)c1cccc(Br)c1 | x | 14 | 3 | -3.7 | 0% | 9% | 15%
CCOC(=O)C1C(C(=O)OCC)C(C)(C)C1N(C)C (stereo not drawn) | -1.0% | 1 | x | x | x | x | -32%[inhibitor]
CCOc1ccc([C@@H]2CC=C(C(=O)O)[C@H](c3cccc(Cl)c3)N2S(=O)(=O)c2ccc(C)cc2)cc1 | 2.4% | 4 | -2 | x | -8% | x | x
O=C(O)c1cn(Cc2ccccn2)c(=O)c2ccccc12 | x | 6 | 1 | -1.8 | -5% | -6% | -9%[15.4 µM]
Cc1cc(N2CCOCC2)ccc1/C=C1/SC(=O)NC1=O | x | -18 | 3 | 12 | -21% | -22% | -3%[15.4 µM]
Cc1ccc(NC(=O)COCC(=O)Nc2ccc(F)cc2)cc1 | 3.2% | 8 | -1 | 3.6 | -31% | 3% | -28%
Cc1cccc(NC(=S)N(CCN(C)C)C(C)c2ccco2)c1 (stereo not drawn) | 1.0% | 2 | -3 | 0.5 | 12% | 9% | -19%
CCCC(C)C(=O)Nc1ccc(S(=O)(=O)Nc2nccs2)cc1 (stereo not drawn) | x | 0 | -1 | -0.2 | -5% | -22% | 12%[15.4 µM]
C=CCN1C(=O)C(C)(C)N(C(C)=O)c2ccccc21 | -0.7% | x | -8 | -0.6 | -2% | 9% | -14%
Cc1cc(C)c(S(=O)(=O)c2ccc(C(C)(C)C)cc2)c(Cl)n1 | -2.2% | 11 | -2 | -7.9 | -8% | -2% | 23%
O=C(CN1CCCC1)Nc1ccc(F)cc1 | x | -3 | -2 | -0.5 | 8% | u | 12%[15.4 µM]
Cc1cc(C)cc(NC(=O)CN2C(=O)C3CC=CCC3C2=O)c1 (stereo not drawn) | 0.7% | 6 | -12 | x | 9% | x | -13%
Cc1oc(-c2ccccc2F)nc1CS(=O)CC(=O)NCc1ccc2c(c1)OCO2 (stereo not drawn) | -1.8% | 18 | 0 | 3.4 | 4% | -22% | 10%
Cn1cnnc1SCCCN1C(=O)c2cccc3cccc(c23)C1=O | 4.1% | 0 | 1 | -1.4 | -9% | 8% | u
CCOC(=O)CCCCCC(=O)Nc1ccc2c(c1)C(=O)N([C@@H](C)CO)C[C@H](C)[C@H](CN(C)C(=O)NC(C)C)OCCCC[C@H](C)O2 | -7.7% | 2 | x | x | x | x | u
O=C(O)/C=C/C(=O)NC1CCCCCCCCCCC1 | -12% | -4 | 15 | 5.3 | -6% | 7% | -14%[15.4 µM]
Cc1ccsc1/C=N/NC(=O)Cn1cnc2ccccc21 | 0.3% | -5 | -16 | -1.8 | -16% | 11% | -2%
Cc1ccc(-n2nnc3c(=O)n(CC(=O)NCc4ccccc4)cnc32)cc1 | 1.3% | -8 | 3 | 1.7 | 6% | 7% | 14%
CC(=O)N1c2ccc(S(=O)(=O)NC(CC(=O)O)c3ccc(Br)cc3)cc2CC1C (stereo not drawn) | 2.1% | 2 | 0 | -0.4 | 27% | 3% | -7%
Cc1ccc(NC(=S)NNC(=O)c2c(Cl)c(C)nn2C)cc1 | 4.0% | 15 | -4 | 4.2 | -32% | 31%[activator] | -28%
COc1ccc(CCN(C)Cc2ccc(OC)c(OCc3ccccc3)c2)cc1OC | 1.1% | -14 | 2 | -1.3 | 1% | -14% | 7%
COc1cccc(C(=O)Nc2cc(C)on2)c1OC | x | 10 | 1 | 5.3 | 5% | 8% | 19%
S=c1[nH]nc(-c2ccco2)n1/N=C/c1ccccc1Cl | -1.2% | 4 | 1 | -1.1 | 3% | u | 0%
COc1cc2nc(CN(C)Cc3ccc(F)cc3)[nH]c(=O)c2cc1OC | -2.5% | x | -11 | -1.8 | -2% | 9% | -30%
Cc1cc(C(=O)COC(=O)C2=COCCO2)c(C)n1-c1ccc2c(c1)OCO2 | 0.7% | -10 | 28 | -1.8 | -28% | u | -33%[inhibitor]
Cc1ccc2cccc(NC3OC(=O)c4ccccc43)c2n1 (stereo not drawn) | 0.1% | 4 | 3 | 2.7 | 7% | -19% | 15%[15.4 µM]
CC(C)OCCCNc1nc2c(c(=O)n(Cc3ccccc3F)c(=O)n2C)n1C | 0.5% | -1 | 11 | -1.5 | 4% | 10% | 8%
Cc1ccc(NC(=O)CC(C)N2CCCC2)cc1 (stereo not drawn) | -0.1% | 4 | 2 | -0.3 | 6% | -29% | -11%
Cc1ccc(C2=NN(CCC#N)C(=O)CO2)cc1 | -0.5% | 1 | -45 | 0.4 | 8% | 11% | -61%[inhibitor]

Arranged by number of heavy atoms (descending): some entries from above
SMILES | ClpP mod | CtBP-E1A inh | TRPV1 potentiator | Menin-MLL FL inh | gsp antagonist | Sfp inh | gsp agonist
COc1ccc(CCN(C)Cc2ccc(OC)c(OCc3ccccc3)c2)cc1OC | 1.1% | -14 | 2 | -1.3 | 1% | -14% | 7%
CC(=O)N1c2ccc(S(=O)(=O)NC(CC(=O)O)c3ccc(Br)cc3)cc2CC1C (stereo not drawn) | 2.1% | 2 | 0 | -0.4 | 27% | 3% | -7%
Cc1cc(C(=O)COC(=O)C2=COCCO2)c(C)n1-c1ccc2c(c1)OCO2 | 0.7% | -10 | 28 | -1.8 | -28% | u | -33%[inhibitor]
Cc1ccc2cccc(NC3OC(=O)c4ccccc43)c2n1 (stereo not drawn) | 0.1% | 4 | 3 | 2.7 | 7% | -19% | 15%[15.4 µM]
S=c1[nH]nc(-c2ccco2)n1/N=C/c1ccccc1Cl | -1.2% | 4 | 1 | -1.1 | 3% | u | 0%
Cc1ccc(C2=NN(CCC#N)C(=O)CO2)cc1 | -0.5% | 1 | -45 | 0.4 | 8% | 11% | -61%[inhibitor]

Going on with the list:
SMILES | ClpP mod | CtBP-E1A inh | TRPV1 potentiator | Menin-MLL FL inh | gsp antagonist | Sfp inh | gsp agonist
O=S1(=O)CCN(Cc2ccccc2)CC1 | 0.7% | 8 | x | x | x | x | -11%
COc1ccccc1N1CCN(CC(=O)N2CCCC2)CC1 | x | 1 | 9 | 0.5 | 13% | 50µM* | -10%[15.4 µM]
NS(=O)(=O)c1ccc(NNC(=O)c2ccccc2)cc1 | 0.0% | x | -4 | 3.8 | 7% | u | 1%
COc1ccc(Nc2nc(NCc3ccco3)nc(N3CCOCC3)n2)cc1 | x | -13 | -10 | 1.0 | -17% | 2% | 12%[15.4 µM]
CCCn1c(N)c(N(CCOC)C(=O)COC(=O)CSc2cc(C)c3ccccc3n2)c(=O)[nH]c1=O | -1.1% | 5 | 4 | x | -5% | x | 2%[15.4 µM]
O=C(NCCc1ccccc1F)C1CC(O)CN1C(=O)Nc1ccccc1 (stereo not drawn) | -0.5% | 2 | 3 | -7.1 | 5% | -2% | -16%
O=C1c2ccccc2C(=O)N1CCCCN(C(=O)c1ccc(Cl)s1)c1ccc(Cl)cc1 | -2.6% | 16 | 12 | 4.1 | 9% | 2% | -10%[15.4 µM]
